Screening data from PubChem.
UCH37 inh: inhibitors of human deubiquitinating enzyme UCH37; 330,000 tested, 0.33% active; Q9Y5K5; AID 588478; inhibition, % (concentration not given with the values); purified proteasome/UCH37, Ub-AMC cleavage fluorescence;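 active means mean of two replicates above 20%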;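 further: 0% = compound-free wells with enzyme and 100% = wells lacking proteasome; stock transfer was 100 nL into about 20 µL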
Target sequence (Q9Y5K5 whole entry, looked up): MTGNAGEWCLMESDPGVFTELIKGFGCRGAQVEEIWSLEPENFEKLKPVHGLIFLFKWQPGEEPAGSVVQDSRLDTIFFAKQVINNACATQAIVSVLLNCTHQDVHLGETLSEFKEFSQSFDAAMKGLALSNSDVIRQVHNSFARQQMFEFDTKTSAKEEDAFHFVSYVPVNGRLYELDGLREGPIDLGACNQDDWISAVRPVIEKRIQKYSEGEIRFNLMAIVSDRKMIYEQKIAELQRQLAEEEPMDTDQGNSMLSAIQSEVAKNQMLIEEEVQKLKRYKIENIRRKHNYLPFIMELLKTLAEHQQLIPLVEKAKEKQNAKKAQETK
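Reagent: Ub-AMC substrate; assay system: Proteasome-associated human UCH37 deubiquitinase; controls: no-proteasome and no-compound wells; read-out: % inhibition of Ub-AMC cleavage fluorescence; timing: 30 min preincubation with enzyme, 25 min cleavage at room temperature; signal: AMC fluorescence from Ub-AMC cleavage, excitation 355 nm, emission 460 nm; buffer or medium: Tris-HCl pH 7.4 plus ovalbumin, ATP-MgCl2, DTT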
E coli growth: inhibitors of Escherichia coli growth; OD600, 23 h; active compounds read low; OD600 absorbance (concentration not given with the values); 330,000 tested, 0.21% active; AID 1053175;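 active means OD600 absorbance below the run mean of sample wells minus 3.6 SD, in any replicate, cut at about 0.56 in these data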;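 further: stock transfer was 300 nL into about 60 µL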
FGF22 binding: shifts melting point of recombinant human FGF22. Q9HCT0. recombinant FGF22 thermal shift, SYPRO orange fluorescence; percent of sucrose octasulfate shift, DMSO zero. calls only at 9.99 µM. 340,000 tested, 1.5% active. AID 651658;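 active means melting point raised past a set limit in the mean and every replicate; three in four hits are not shown here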
ALR inh: inhibitors of human sulfhydryl oxidase ALR. 290,000 tested, 3.8% active. P55789. inhibition, % (concentration not given with the values). purified ALR, DTT oxidation, H2O2 HRP-luminol luminescence. AID 485317;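 active means mean and each replicate at 75% or more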;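 further: stock transfer was 7.5 nL into about 7.5 µL; 0% = neutral wells and 100% = wells with inactivated enzyme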
Target sequence (P55789 whole entry, looked up): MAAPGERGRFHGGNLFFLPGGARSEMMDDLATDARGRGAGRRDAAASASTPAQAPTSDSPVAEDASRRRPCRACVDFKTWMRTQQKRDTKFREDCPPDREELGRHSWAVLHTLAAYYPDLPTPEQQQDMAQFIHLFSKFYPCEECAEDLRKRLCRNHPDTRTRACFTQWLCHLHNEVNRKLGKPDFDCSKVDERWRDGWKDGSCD
HNF4A DNA FP: change in binding of human HNF4 alpha to DNA | HNF4a-FITC DNA binding, fluorescence polarization, 1 h | P41235 | activity change, % at 10 µM | AID 1224865 | 360,000 tested, 0.3% active; in the data active means activity change above about 30%, passing the limit was not always enough;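 further: controls were the assay level and a saturating level of protein; the project sought stronger binding though the title names inhibitors; some compounds called inactive have numbers as strong as hits; positive values seem to mean higher polarization but the record does not say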
Ecoli rRNA inh: inhibitors of bacterial rRNA selective over humanized ribosomes | E. coli WT GFP vs humanized-ribosome RFP mutants, fluorescence, 24 h; active compounds read low; DMSO median 0, no signal -100 | GFP signal change (wild-type ribosome), % (no concentration beside the values) | 350,000 tested, 1.6% active;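 active means significant combined selectivity score with lowered wild-type GFP, culture density cut under 30%, mutant RFP and density less affected; inactive means any of these conditions unmet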; further: one replicate is shown; some compounds called inactive have numbers as strong as hits
B2AR ag: human beta-2 adrenergic receptor agonism by FAP; P07550; Am2.2-beta2AR cells, FAP receptor internalization, flow cytometry; reference of the scale not given here; response, % (test concentration not listed); 340,000 tested, 0.43% active;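 active means response above a set limit, near 3 SD of response in nonfluorescent compounds, cut at about 42% in these data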;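 further: stock transfer was 100 nL into about 11 µL; a reference agonist was the positive control; negative values mostly stem from fluorescent compounds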
Target sequence (P07550 whole entry, looked up): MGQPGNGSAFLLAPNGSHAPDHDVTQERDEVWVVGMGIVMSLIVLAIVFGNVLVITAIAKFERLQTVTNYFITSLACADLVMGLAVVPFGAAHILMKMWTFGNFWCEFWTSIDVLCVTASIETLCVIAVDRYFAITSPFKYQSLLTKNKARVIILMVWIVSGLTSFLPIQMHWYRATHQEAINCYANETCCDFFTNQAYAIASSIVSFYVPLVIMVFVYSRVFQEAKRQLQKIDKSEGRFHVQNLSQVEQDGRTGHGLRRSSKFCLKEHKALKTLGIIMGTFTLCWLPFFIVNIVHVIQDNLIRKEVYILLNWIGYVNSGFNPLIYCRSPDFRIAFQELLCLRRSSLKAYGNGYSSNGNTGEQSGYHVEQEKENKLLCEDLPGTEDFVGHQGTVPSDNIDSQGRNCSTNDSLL
Ecoli rRNA inh OD600: also measured in Ecoli rRNA inh; calls as there; OD600 change, %; measured here: OD600 growth;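 optical density of the mix in the first replicate; 0 = DMSO median and -100 = no signal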
Ecoli rRNA inh RFP: also measured in Ecoli rRNA inh; calls as there; RFP signal change, %; measured here: RFP humanized mutant strains;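 first replicate; 0 = DMSO median and -100 = no signal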
* marks the source's active call; other numbers are inactive results; i = inactive; · = not tested or not shown. This is a subset; the hit share may differ from the screen's.

SMILES	UCH37 inh	E coli growth	FGF22 binding	ALR inh	HNF4A DNA FP	Ecoli rRNA inh	Ecoli rRNA inh OD600	Ecoli rRNA inh RFP	B2AR ag
COc1cccc(NC(=O)CN(C)C(=O)/C=C/c2cn(-c3ccccc3)nc2-c2cccs2)c1	-76	0.64	i	·	2.7	-1	3	4.8	13
CCN(CC)S(=O)(=O)c1cccc(C(=O)N[C@H](C(=O)NCc2ccc(Cl)cc2)C(C)C)c1	3.2	0.74	·	-2	5.4	·	·	·	1
CN(C)CCNc1ncnc2c1sc1nc(N3CCCC3)c3c(c12)CC(C)(C)OC3	-1.8	0.58	i	1	4.5	-21*	-5.7*	-4.7*	72*
CCOc1ccc(OCC)c(S(=O)(=O)NCc2ccccn2)c1	-1.6	0.66	i	·	-1.3	4	-4	-0.9	-2
CCCC1=Nc2cc(C(=O)NCc3ccco3)ccc2Sc2ccccc21	1.0	0.64	·	-3	2.9	·	·	·	30
CCC1=C(OC(=O)N(CC)CC)N2C(=O)OC(=NCC(=O)OC)[C@]2(C)[C@H]2C1=CC[C@H]1C(=O)N(CC)C(=O)[C@H]12	4.3	·	i	-6	-3.2	17	0	-6.8	0
CC(=O)Nc1cccc(-c2ccnc3c2CC(C(=O)NCc2cccnc2)O3)c1 (configuration not stated)	·	·	i	·	-3.3	2	7	-0.6	·
COc1nc(C)ccc1-c1noc(-c2ccco2)n1	1.4	0.67	·	-6	5.2	·	·	·	-9
O=C(Nc1ccc2nc(-c3ccccc3)[nH]c2c1)c1ccco1	-0.2	0.64	·	·	0.1	·	·	·	-9
CCOC(=O)c1ccccc1NC(=O)c1cccc(F)c1	-1.3	0.76	·	-9	0.0	·	·	·	6
CCN(CC)c1ccc(-c2nn3c(-c4cccnc4)nnc3s2)cc1	-213	0.65	·	·	0.5	·	·	·	-1
CCOC(=O)C1=C(C)NC(=O)NC1c1ccc(OC)c(CN2CCOCC2)c1 (configuration not stated)	-1.4	0.76	·	-7	0.6	·	·	·	1
CCCNC(=O)CS(=O)Cc1nc(-c2cccc(OC)c2)oc1C (configuration not stated)	9.7	0.71	i	99*	-1.4	4	9	-0.6	-6
N#C/C(=C\c1ccc(O)cc1)c1nc2ccccc2o1	9.4	0.62	i	74	57*	-35*	-4.8*	-1.6*	-15
COc1ccc(CCNC(=O)CSc2nnc(-c3ccccc3)c3ccccc23)cc1OC	2.6	0.67	·	96*	-0.3	·	·	·	9
CSc1ccc(S(=O)(=O)NCc2ccc(C)cc2)cc1	3.4	0.72	·	1	-3.9	·	·	·	-11
Cc1ccc(OCCn2cnc3c(N)ncnc32)cc1	3.2	0.65	·	·	-1.7	·	·	·	0
O=S(=O)(c1ccccc1)c1nc(NCc2ccccc2)sc1Cl	3.2	0.67	i	-5	4.1	-45	-72	-16	-10
CN(Cc1ccc2c(c1)OCCO2)C(=O)CN1C(=O)NC2(CCCCC2)C1=O	2.8	0.7	i	-1	2.5	4	7	1.6	-2
O=C(O)CSc1c2c(nc3cc(C(=O)N4CCCC4)ccc13)CCCC2	1.3	0.7	i	·	0.4	5	6	2.3	-5
COc1cc(CC(=O)OCC(=O)Nc2sccc2C(N)=O)cc(OC)c1OC	-1.6	0.62	i	13	11	-22	-20	-0.1	1
CCCN1CCC(NCc2cn(C)nc2-c2ccc(Oc3ccccc3)cc2)CC1	3.7	0.66	·	1	2.9	11	-3	-3.2	15
CC1CCN(C(=O)Cn2c(=O)c3cccn3c3ccccc32)CC1	0.0	0.69	i	9	-3.1	3	7	-1.5	-7
O=[N+]([O-])c1ccccc1S(=O)(=O)Nc1ccc(-c2ccc3nncn3n2)cc1	11	0.65	i	0	2.9	2	9	-2.3	4
Cc1ccc(C(=O)N2CCCC(C(F)(F)F)C2)cc1S(=O)(=O)N1CCOCC1 (configuration not stated)	2.5	0.67	i	-1	1.7	·	·	·	4
O=Cc1ccc(OCc2ccc3ccccc3c2)cc1	1.3	0.66	i	-12	-2.7	5	-1	-6.5	14
Cc1ccccc1-c1nc(CN(Cc2c(C)nn(C)c2C)C2CC2)c(C)o1	0.1	0.69	·	-5	0.1	-44	-64	-12	3
Cc1ccc(C=Nc2ccc(N(C)C)cc2)o1	7.9	0.75	i	98*	1.8	3	19	19	10
Cn1cnnc1SC(C(=O)c1ccccc1)c1ccccc1 (configuration not stated)	3.8	0.71	·	15	-1.9	·	·	·	1
C=CC[C@H]1CC(C)=C[C@H](CC=C)N1	-1.9	0.66	·	2	2.8	28	20	2.3	2
O=C(O)CCCc1nc(-c2ccccc2)no1	0.5	0.63	·	2	0.6	·	·	·	-9
O=C(NCC(=O)N(CC1CCCO1)C(C(=O)NC1CCCC1)c1cccnc1)c1ccco1 (configuration not stated)	-4.0	0.71	·	11	2.4	·	·	·	2
COc1ccc(CCN(C)C(=O)c2cc(-c3ccc(C)cc3)nc3ccccc23)cc1OC	1.5	0.65	i	-4	2.3	-7	-7	1.3	3
COc1ccccc1OCC(=O)N/N=C1\CCCCc2ccccc21	·	·	i	-1	3.6	-12	-15	-1.3	-1
Cc1c(Cl)cccc1S(=O)(=O)Nc1ccnn1C	6.3	0.64	i	8	2.4	9	-11	-2.4	-1
COc1cccc(N(C(=O)c2snc(C(N)=O)c2N)C(C(=O)NCC2CCCO2)c2c[nH]c3ccccc23)c1 (configuration not stated)	-21	0.65	i	·	-0.7	-4	-15	0.0	0
Cc1ccc(-c2nc3cccnc3s2)cc1NS(C)(=O)=O	-19	0.75	i	-26	4.1	-6	3	-1.1	-8
CC(=O)c1cc2c(cc1NC(=O)CN1CCCCCC1)OCO2	-10	0.69	·	·	-0.1	·	·	·	-5
O=C(CCSc1nnc2scc(-c3ccccc3)n12)Nc1nc(-c2ccccc2)ns1	0.4	0.68	·	·	9.7	·	·	·	3
COc1ccccc1N1C(=O)C2CC(C)=C(C)CC2C1=O (configuration not stated)	-1.0	0.71	·	-6	0.8	·	·	·	9
C#CCOCCOCCOCCNc1nc(N2CCOCC2)nc(N2CCN(C(=O)[C@H](C)n3cc(CCCN=C(N)N)nn3)CC2)n1	1.7	·	i	0	3.3	10	5	-2.6	2
COc1ccc(C2CC(c3ccc(Cl)cc3Cl)Nc3nc(N)nn32)cc1 (configuration not stated)	·	·	i	-5	-3.4	-27	-47	-4.1	-10
O=C(Nc1ccc(F)cc1)C(c1cccc(F)c1)N1CCN(CC(=O)N2CCCC2)CC1 (configuration not stated)	·	·	i	·	2.6	5	6	-2.9	·
CCOC(=O)Nc1nc2ccccc2s1	1.7	0.66	·	-10	-4.6	·	·	·	-5
CCCCCCCNC(=O)COc1ccc2c(c1)C(=O)CC(C)(C)O2	-356	0.67	·	-13	5.0	·	·	·	-2
CC(=O)c1ccc(NC(=O)c2ccc(-n3cnnn3)cc2)cc1	-11	0.66	i	·	-0.6	7	12	1.8	-5
COc1ccc(OCCSc2nnc(CCNC(=O)c3ccc(Cl)c(Cl)c3)n2C)cc1	3.7	0.7	i	-2	-5.7	-1	-1	2.3	-11
Cc1cccc(OCC(=O)NNC(=O)C2CCN(c3ncnc4sc(C)c(C)c34)CC2)c1	2.7	0.68	i	-1	0.9	-20	-22	-4.4	21
O=S(=O)(c1cccc2cccnc12)n1cnc2ccccc21	0.8	0.74	·	2	18	·	·	·	3
O=C(NCCCN1CCCC1=O)[C@H](CSCc1ccccc1)N1Cc2ccccc2C1=O	4.9	0.72	i	·	0.8	3	-14	4.0	3

Next part.
SMILES	UCH37 inh	E coli growth	FGF22 binding	ALR inh	HNF4A DNA FP	Ecoli rRNA inh	Ecoli rRNA inh OD600	Ecoli rRNA inh RFP	B2AR ag
Cc1ccc2c(c1)N(C(=O)CCC(=O)NCCCN1CCN(C)CC1)CC(C)O2 (configuration not stated)	1.6	0.69	i	-7	4.8	0	3	-2.6	8
CCC(C(=O)Nc1nc(C)c(C(=O)OC)s1)c1ccccc1 (configuration not stated)	3.3	0.67	·	6	-2.8	8	-3	-4.3	-3
COc1ccc(N2CC(C(=O)Nc3ccncc3)CC2=O)cc1 (configuration not stated)	0.9	0.66	i	-13	0.5	4	13	-1.4	-3
COc1cccc(NC(=O)c2ocnc2C)c1	0.8	0.65	·	-6	-3.2	·	·	·	0
N#C/C(C(=O)NCc1ccccc1)=C1/N=C(NC(=O)c2ccco2)c2ccccc21	5.1	0.72	i	0	12	·	·	·	7
O=C(OCc1nnc(-c2ccccc2)o1)c1ccco1	1.9	0.71	·	41	2.1	·	·	·	-33
CCOC(=O)C1CCCN(S(=O)(=O)c2ccc3ccccc3c2)C1 (configuration not stated)	0.4	0.68	·	2	-0.3	·	·	·	4
O=C(NCCc1ccccn1)c1cc(-c2ccccc2Cl)nc2ccccc12	-0.8	0.7	·	-6	0.1	·	·	·	5
O=C1Nc2ccccc2/C1=N\N1CCOCC1	·	·	i	-2	1.4	8	5	-0.9	-3
Cc1ccc(CN(C)C(=O)c2cccc(S(=O)(=O)N3CCCC3)c2)cc1	-0.3	0.66	i	·	-2.8	·	·	·	-1
COc1cc(N)c(Cl)cc1C(=O)OCC(=O)NCc1cccs1	0.9	0.67	i	2	0.3	-8	-15	3.3	11
COc1ccc(/C(C)=N/NC(=O)C(NC(=O)c2ccccc2)c2n[nH]c(=O)c3ccccc23)c(OC)c1 (configuration not stated)	·	·	i	-4	1.9	-2	-7	4.2	-13
Clc1ccc(/C=C/c2nc3ccccc3[nH]2)c(Cl)c1	i	0.69	·	·	-1.4	·	·	·	8
O=C(NNc1nc(-c2ccc(F)cc2)cs1)c1ccccc1	-10.0	0.69	i	·	4.3	-3	17	10	1
Fc1ccc(CSc2ncnc3nc[nH]c23)cc1	8.0	0.7	i	-10	-0.6	3	5	-1.7	-1
CCc1nc(SCC(=O)Nc2nnc(CC(C)C)s2)n[nH]1	-1.4	0.68	i	0	3.6	8	9	2.4	-8
CCOC(=O)C1CCN(CC(=O)Nc2c(C(=O)OC)[nH]c3ccc(Cl)cc23)CC1	1.7	0.68	·	1	0.6	·	·	·	3
O=C(NN1C(=O)NC2(CCCCC2)C1=O)c1cc(F)cc(F)c1	3.4	0.66	i	10	0.1	8	0	-1.4	-5
COc1ccccc1NS(=O)(=O)c1cc(NC(=O)CNC(=O)c2ccc(C)s2)ccc1Cl	1.5	0.65	i	·	3.0	-12	-21	-8.2	-4
CCCOc1ccc(F)cc1-c1cc(C(=O)Nc2ccc(OC)cc2OC)[nH]n1	·	·	i	·	5.9	-4	3	-1.2	·
Cc1ccc(N/C=C2\CCCCC2=O)c(C)c1	5.4	0.72	i	8	-0.5	-4	0	0.2	7
Cn1cc(CNC(=O)C2CCC(=O)N(Cc3cccc(C(F)(F)F)c3)C2)cn1 (configuration not stated)	1.7	0.69	i	-9	-0.2	1	9	0.7	-1
Cc1ccc(S(=O)(=O)N2CCCCC2)cc1NC(=O)COC(=O)c1cccc(O)c1	·	·	i	·	-1.8	1	0	-1.9	·
Cn1nc(-c2ccccc2)c(CSc2ccccc2)c1Cl	-1.1	0.67	·	·	-3.9	·	·	·	2

A draw from above in order of length of the SMILES, smallest number first:
SMILES	UCH37 inh	E coli growth	FGF22 binding	ALR inh	HNF4A DNA FP	Ecoli rRNA inh	Ecoli rRNA inh OD600	Ecoli rRNA inh RFP	B2AR ag
CCCOc1ccc(F)cc1-c1cc(C(=O)Nc2ccc(OC)cc2OC)[nH]n1	·	·	i	·	5.9	-4	3	-1.2	·
Cn1cc(CNC(=O)C2CCC(=O)N(Cc3cccc(C(F)(F)F)c3)C2)cn1 (configuration not stated)	1.7	0.69	i	-9	-0.2	1	9	0.7	-1
COc1ccccc1NS(=O)(=O)c1cc(NC(=O)CNC(=O)c2ccc(C)s2)ccc1Cl	1.5	0.65	i	·	3.0	-12	-21	-8.2	-4
